RanGTP-Imp inh: disruptors of Ran-importin-beta complex formation – biochemical, FRET, CFP-Ran, YFP-importin-beta, homogeneous, primary screen. cell-free CFP-Ran/YFP-importin-beta FRET ratio. inhibition, % (concentration not given with the values). actives 1.1% (n = 300,000). AID 2216;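 active = most replicates above 15%; inconclusive = exactly half above 15%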;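 note: 0% = DMSO wells and 100% = Ran loaded with GDP instead of GTP; wells of about 40 µL received 100 nL stock; the first replicate is given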
LANA-H2B inh: blocks KSHV LANA binding to histone H2A/H2B; actives 0.6% (n = 320,000); Q9QR71; cell-free LANA-H2A/H2B peptide, fluorescence polarization; inhibition, % (concentration not given with the values); in the data active = inhibition mostly above about 10%, no sharp cut-off; inactive = mostly below about 6.7%;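 note: stock transfer was 7.5 nL into about 10 µL; 0% = median of vehicle wells and 100% = median of positive control wells; one replicate is shown; the record names a cut of 25% in any replicate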
Beta2AR agonist: agonists of human beta-2 adrenergic receptor inducing internalization | P07550 | Am2.2-beta2AR cells, FAP receptor internalization, flow cytometry; reference of the scale not given here | response, % (concentration not given with the values) | actives 0.43% (n = 340,000);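 active = response above a set limit, near 3 SD of response in nonfluorescent compounds, cut at about 42% in these data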;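 note: stock transfer was 100 nL into about 11 µL; a reference agonist was the positive control; negative values mostly stem from fluorescent compounds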
ALR inh: inhibitors of human sulfhydryl oxidase ALR. purified ALR, DTT oxidation, H2O2 HRP-luminol luminescence. actives 3.8% (n = 290,000). inhibition, % (test concentration not listed). AID 485317;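 active = mean and each replicate at 75% or more; inconclusive = only one of the two met; inactive = neither met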;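 note: stock transfer was 7.5 nL into about 7.5 µL; 0% = neutral wells and 100% = wells with inactivated enzyme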
Target sequence (P55789 whole entry, looked up): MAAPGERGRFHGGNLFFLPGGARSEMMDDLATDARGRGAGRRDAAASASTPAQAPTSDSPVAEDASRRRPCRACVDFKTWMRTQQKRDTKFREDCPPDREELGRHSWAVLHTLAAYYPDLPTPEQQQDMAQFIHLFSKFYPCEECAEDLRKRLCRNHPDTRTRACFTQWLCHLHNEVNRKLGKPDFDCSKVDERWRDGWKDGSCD
Calb FLC: C. albicans growth modulation with fluconazole | AID 1979 | C. albicans CaCi-2 (fluconazole-resistant clinical isolate) + fluconazole, Alamar Blue growth, 48 h | growth inhibition, % (no concentration beside the values) | actives 0.57% (n = 300,000);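 active = most replicates above 75%; inconclusive = exactly half above 75%; inactive = most below 75%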;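 note: all wells also contain fluconazole at 8 µg/ml as a sub-toxic cotreatment; 0% = median of DMSO wells and 100% = median of geldanamycin control wells; wells of about 8 µL received 7.5 nL stock; the first replicate is given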
Vif A3G: HIV-1 Vif–A3G interaction blockers – biochemical, TR-FRET, GST-Vif 1-94, biotin-A3G peptide, dose response retest, primary screen (AID 1117319). TR-FRET GST-Vif / biotin-A3G peptide binding; higher % means a stronger effect; test concentration not given here; strong numbers were not always called active. inhibition, %; hits with a dose series show IC50 in µM. actives 0.57% (n = 260,000);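 active = above the screen mean plus three standard deviations and confirmed in dose response; inconclusive = results disagree or hit not tested in dose response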;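 note: Vif residues 1-94 fused to GST binding biotinylated APOBEC3G peptide 110-148; 0% = full assay without inhibitor and 100% = GST in place of GST-Vif; retest series ran down from 100 µM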
HNF4A DNA FP: change in binding of human HNF4 alpha to DNA | P41235 | HNF4a-FITC DNA binding, fluorescence polarization, 1 h | activity change, % at 10 µM | actives 0.3% (n = 360,000); in the data active = activity change above about 30%, passing the limit was not always enough;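 note: controls were the assay level and a saturating level of protein; the project sought stronger binding though the title names inhibitors; some compounds called inactive have numbers as strong as hits; positive values seem to mean higher polarization but the record does not say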
Target sequence (P41235 whole entry, looked up): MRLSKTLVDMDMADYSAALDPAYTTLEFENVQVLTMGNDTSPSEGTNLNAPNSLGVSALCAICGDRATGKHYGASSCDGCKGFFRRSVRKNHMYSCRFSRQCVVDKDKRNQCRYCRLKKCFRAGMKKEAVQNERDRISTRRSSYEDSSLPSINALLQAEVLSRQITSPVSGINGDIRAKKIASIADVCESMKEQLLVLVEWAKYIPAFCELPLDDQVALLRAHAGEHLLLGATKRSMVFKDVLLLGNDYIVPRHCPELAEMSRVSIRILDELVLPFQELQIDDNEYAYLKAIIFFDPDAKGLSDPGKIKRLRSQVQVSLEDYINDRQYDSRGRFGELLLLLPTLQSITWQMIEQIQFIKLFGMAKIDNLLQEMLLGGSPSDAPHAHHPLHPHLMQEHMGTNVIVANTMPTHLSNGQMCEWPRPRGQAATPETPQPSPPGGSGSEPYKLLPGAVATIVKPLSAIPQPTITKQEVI
The depositor's hits bear a star; i = inactive; ? = inconclusive; · = not tested or not shown; & = joins results of further samples.

Every second line gives: RanGTP-Imp inh	LANA-H2B inh	Beta2AR agonist	ALR inh	Calb FLC	Vif A3G	HNF4A DNA FP
1. O=C(Nc1cccc(C(=O)N2CCCC2)c1)C1CCC1
  ·	·	-11	·	·	-3%	3.4
2. O=C(CCCOc1ccccc1)NCCc1nc2ccccc2[nH]1
  -2.8	1.5	-6	45	-13	-8%	-1.4
3. O=C(COc1ccc(F)cc1Br)NCC1(N2CCCCC2)CCCCC1
  ·	-1.3	-6	-3	·	-5%	-2.9
4. COC(=O)C(NC(=O)c1ccccc1)=C(C)C
  0.4	1.3	0	·	-4	-3%	0.9
5. CC1=CC(=O)N(c2ccn(C)n2)C1=O
  -0.5	16	-1	0	16	·	-2.9
6. CN(CC(=O)NCCc1ccc(S(N)(=O)=O)cc1)S(=O)(=O)c1cccc2nsnc12
  1.8	-6.6	5	-2	15	·	-4.1
7. Cc1c(C(=O)N2CCN(CCc3ccccn3)CC2)oc2ccc(F)cc12
  -2.0	-1.4	-8	7	0	-10%	-0.1
8. CCOc1ccc(N(Cc2ccc(OC)c(OC)c2)C(=O)c2ccco2)cc1
  ?	3.7	1	·	16	?	1.5
9. COC(=O)CCCC1=CC2=CC(=O)C(C)(OC(=O)c3cccs3)C(=O)C2=CN1Cc1ccco1 (stereo not given)
  -3.4	2.6	6	-42	21	·	3.0
10. O=C(COc1ccc(S(=O)(=O)N2CCOCC2)cc1Cl)NCCCn1ccnc1
  3.5	0.0	-5	-1	2	·	-0.7
11. CCn1c(SCC(=O)Nc2cc(C)on2)nc2c1c(=O)n(C)c(=O)n2C
  6.6	-0.9	-3	-4	25	5%	-2.5
12. CC(=O)OCCCN(C)CC/C=C1/c2ccccc2CSc2ccccc21
  5.1	-7.3	2	-10	9	·	2.1
13. COC(=O)c1cc(NC(=O)Cn2c(=O)oc3ccccc32)cc(C(=O)OC)c1
  1.2	9.7	71*	-1	20	·	3.1
14. c1ccc(Nc2nc(CSc3ncn[nH]3)cs2)cc1
  -4.4	2.1	-1	94*	5	1%	6.3
15. CC1CC(=O)N(C)c2cc([N+](=O)[O-])ccc2N1 (stereo not given)
  -2.6	-0.5	1	1	?	21%	1.5
16. Cn1cc(S(=O)(=O)N2CCOCC2)cc1C(=O)NCc1ccc(Cl)cc1
  3.2	0.2	6	7	-2	·	0.0
17. O=c1[nH]c(CN2CCN(S(=O)(=O)c3ccccc3C(F)(F)F)CC2)nc2sc3c(c12)CCCC3
  4.2	1.6	-12	-5	15	·	4.2
18. N#CC1(NC(=O)COC(=O)C2=COCCO2)CCCCC1
  ·	9.3	·	16	·	·	-2.0
19. COCCN(C(=O)COC(=O)/C(=C/c1ccccc1)NC(C)=O)c1c(N)n(Cc2ccccc2)c(=O)[nH]c1=O
  1.1	0.7	12	-19	-1	·	-0.9
20. O=C(c1cc(-c2ccc(F)cc2)on1)N1CCCCCC1
  0.4	1.2	6	3	-11	·	3.2
21. N#C/C(=C\Nc1ccc2c(c1)OCCO2)c1nc(-c2ccccc2)cs1
  -1.6	1.4	7	-4	5	·	4.0
22. COc1ccccc1C(=O)NNc1ncc(C)s1
  -1.4	3.5	-7	·	-12	4%	-0.6
23. O=C(Nc1nnc(SCc2c(Cl)cccc2Cl)s1)c1ccc2ncsc2c1
  -0.2	1.0	·	-6	-1	-2%	·
24. N#CCCn1nc(-c2ccccc2)c2ccccc2c1=O
  2.1	-2.6	-7	-4	12	·	3.8
25. O=C(CN1CCCC1)Nc1cc(C(F)(F)F)ccc1Cl
  3.8	-2.5	-3	11	-3	23%	4.2
26. N=c1sccn1CC(=O)Nc1cc(Cl)ccc1[N+](=O)[O-]
  -0.8	0.2	1	-7	-20	·	1.9
27. CCOc1ccc(NC(=O)c2cccc(OC(=S)N3CCC(C)CC3)c2)cc1
  ?	1.0	-7	-11	-5	6%	0.8
28. CCN(CC)c1ccc(NC(=O)CN2CCN(c3ccc(F)cc3)CC2)cc1
  -0.5	5.0	5	79*	-5	2%	-1.8
29. CC(C)S(=O)(=O)c1cnc(-c2cccnc2)nc1N
  4.6	-1.9	-2	2	-1	-3%	1.6
30. CCCCn1c(N)c(N(CCC(C)C)C(=O)C2CC(=O)N(c3ccccc3OCC)C2)c(=O)[nH]c1=O (stereo not given)
  -0.9	-0.2	-1	-2	-1	-3%	0.3
31. O=C(Cc1ccccc1)Nc1ccc(N2CCCC2)cc1
  0.2	5.8	14	-9	-6	1%	7.6
32. CCS(=O)(=O)N1CCN(Cc2ccccc2OC)CC1
  ?	-8.3	0	-2	9	10%	2.2
33. CN(C)CCCNS(=O)(=O)c1ccc(Cl)s1
  2.1	5.5	8	-3	-12	·	-0.6
34. CN1CCC(N(C)C(=O)COc2ccccc2Cl)CC1
  ·	-0.1	10	2	·	-8%	-1.9
35. C#Cc1ccc([C@H]2C=C(C(=O)N3CCN(Cc4ccccc4)CC3)O[C@@H](OCc3ccc(CO)cc3)C2)cc1
  -4.2	2.9	15	-3	0	8%	8.4
36. Cc1ccc(-n2nc3c(c2NC(=O)c2cc4ccccc4o2)CS(=O)(=O)C3)cc1
  -1.9	1.0	3	-14	-14	-7%	-0.2
37. O=C(CSc1nc2ccccc2s1)NCCCN1CCOCC1
  -3.2	-5.1	1	-11	-23	7%	-3.4
38. CC(=O)c1cccc(S(=O)(=O)Nc2ccc(N3CCOCC3)cc2)c1
  -0.3	4.4	-2	·	2	·	0.8
39. O=C(NCc1cccc(Br)c1)C1CC(c2ccc(C(F)(F)F)cc2)=NO1 (stereo not given)
  -4.0	2.4	12	·	8	·	-3.6
40. CC1(c2ccc(OC(F)F)cc2)NC(=O)N(CC(=O)Nc2ccc3c(c2)OCO3)C1=O (stereo not given)
  2.7	-1.5	8	-5	7	7%&-3%	1.6
41. CCCN(Cc1cc2ccc(C)cc2[nH]c1=O)S(=O)(=O)c1ccccc1
  4.1	-1.1	-5	-22	-9	-4%	-1.3
42. COc1cc2c(cc1NC(=O)C(C)N1CCN(S(=O)(=O)c3ccccc3[N+](=O)[O-])CC1)oc1ccccc12 (stereo not given)
  6.1	2.0	6	-6	-9	1%	6.1
43. O=S(=O)(c1cc(O)ccc1O)c1cccc2c(S(=O)(=O)c3cc(O)ccc3O)cccc12
  -1.6	1.9	6	93*	0	·	-56
44. Cc1cc2oc(C(=O)Nc3ccc(S(=O)(=O)Nc4ncccn4)cc3)cc(=O)c2cc1Cl
  0.8	-6.7	-13	-2	15	·	3.6
45. O=C(CSc1nnc(Cc2ccccc2)o1)c1ccccc1
  -0.4	-0.1	2	·	1	-1%	1.5
46. Cn1cc(/C=C/c2cc[n+](C)cc2)c2cc(F)ccc21
  -308	-188	i	·	?	-20%	20
47. OCCN1CCN(C(=S)c2ccc(Cl)cc2)CC1
  5.5	0.5	18	1	-7	0%	-0.2
48. Cc1nc2cc(NS(=O)(=O)c3ccc(Br)cc3)ccc2n1C
  2.2	-1.1	-1	-4	3	·	-2.5
49. COc1ccc(C)cc1NC(=O)COC(=O)C1COc2ccccc2O1 (stereo not given)
  ·	-2.5	1	-8	·	·	6.0
50. O=C(Nc1ccncc1)C1COc2ccccc2O1 (stereo not given)
  1.9	-2.4	0	-3	-3	-4%	1.1
51. Cc1ccc(C(=O)NCc2ccccn2)cc1S(=O)(=O)N1CCCCC1
  -2.8	4.2	15	-12	-5	·	1.6
52. CCc1ccc(NC(=O)C2CCCN(S(=O)(=O)c3c(C)[nH]c(=O)[nH]c3=O)C2)cc1 (stereo not given)
  -2.8	-0.5	8	-12	7	-4%	-0.3
53. CCC(C)NC(=O)c1cc2c(=O)n(CC)c3ccccc3c2s1 (stereo not given)
  -1.2	-1.2	3	·	-1	-4%	2.5
54. CCc1ccccc1NC(=O)CNC(=O)c1ccccc1OCc1c(C)noc1C
  ?	·	-2	·	-2	1%	-2.5
55. CCN(CC)CCN(C)C1CCC(c2ccccc2)CC1 (stereo not given)
  ·	-3.8	9	·	·	6%	2.2
56. COc1cccc(C(=O)NCCC2=CCCCC2)c1OC
  2.9	-2.0	-8	-1	3	7%	-5.0
57. CC(C)(C)c1ccc(/C=C/C(=O)c2ccc(NC3=NCCCS3)cc2)cc1
  ·	-1.2	8	-3	·	15%	-1.4
58. Cc1ccccc1COc1cccc(/C=N/NC(=O)c2nnn(-c3nonc3N)c2C)c1
  4.1	0.3	4	-3	-8	·	0.3
59. Cc1cc(C(=O)CN2C(=O)c3cccc(N)c3C2=O)c(C)n1Cc1cccs1
  66*	-3.5	1	5	-3	-2%	-7.8
60. CCSc1nnc(N2C(=O)C(O)=C(C(=O)c3ccco3)C2c2cccc(OC)c2)s1 (stereo not given)
  0.9	9.3	9	9	-5	·	-23

(continued)
Every second line gives: RanGTP-Imp inh	LANA-H2B inh	Beta2AR agonist	ALR inh	Calb FLC	Vif A3G	HNF4A DNA FP
61. Cn1c(=O)c2c(nc3n2CC(O)CN3c2ccccc2)n(C)c1=O (stereo not given)
  0.9	-0.6	8	-10	-5	·	4.9
62. Cc1ccc2nc3c(c(C(=O)OCC(=O)N(C)C4CCS(=O)(=O)C4)c2c1)CCCC3 (stereo not given)
  -0.5	0.1	-2	-8	?	-13%	2.1
63. COc1ccc(NC(=O)N(C)C[C@@H]2Oc3ccc(NC(=O)NC(C)C)cc3CC(=O)N([C@H](C)CO)C[C@@H]2C)cc1
  ·	-2.4	0	2	·	·	0.8
64. CC(C(=O)NCC1CCCCC1)N(C)CC(=O)Nc1ccc(N2CCOCC2)cc1 (stereo not given)
  1.8	-0.3	-3	92*	-5	8%	5.5
65. Cn1cnnc1SCc1ccc(F)c2ccccc12
  0.1	-4.0	-8	-13	-4	32%	2.5
66. COc1ccc(-c2noc3c2-c2nc(-c4c(F)cccc4F)sc2CC3)cc1
  2.2	-1.3	1	-19	0	·	3.1
67. Fc1ccc(-c2csc(N3CCC(c4ccccc4)C3)n2)cc1 (stereo not given)
  0.8	-5.5	4	-18	4	-4%	0.2
68. C(=N\Nc1nc(N2CCCCCC2)nc(N2CCCCCC2)n1)/c1ccccc1
  0.0	4.3	9	-2	-18	0%	-0.6
69. COc1ccccc1NC(=S)N1CCN(c2cccc(C)c2C)CC1
  5.2	1.8	2	-11	0	0%	0.4
70. CC(=O)c1c(C)oc2ccc(N(C(C)=O)S(=O)(=O)c3ccc(F)cc3C)cc12
  -1.1	-1.0	3	-11	4	·	5.7
71. CC(C)N1CCc2c(sc(NC(=O)c3ccc(S(=O)(=O)N4CCCCC4C)cc3)c2C(N)=O)C1 (stereo not given)
  107*	-12	26	-2	20	·	8.4
